High-throughput results from PubChem.
HSV augment – HSV replication enhancement; 220,000 compounds, 0.005% hits; maximum fold increase; HSV replication augmentation in cells, fold increase; AID 1956;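 active means peak rise of 1.5-fold or more in the series; tested in PC3 cells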;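 further: first round at 10 µM; read as green reporter fluorescence; hits show the peak of a series up to 25 µM; 1 = signal of infected wells without compound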
HSV augment primary fold – recorded beside HSV augment, whose call it bears; fold increase; compound at 10 µM; measured here: primary screen fold increase 10 uM; tested in PC3 cells;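 GFP signal in the first replicate; 1 = infected wells without compound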
* marks the source's active call; other numbers are inactive results; i = inactive. The list is partial, so the mix of outcomes need not match the whole.

Fields: HSV augment, HSV augment primary fold
(1) COc1ccc([C@H]2/C=C\CN(S(=O)(=O)c3ccc4ccccc4c3)[C@@H](C)C(=O)N2Cc2ccc(F)cc2)cc1
  i, 1.02
(2) C[C@H]1CCC[C@@]2(O[C@H](CCO)C[C@@H](O)[C@@H]2O)O1
  i, 0.65
(3) O=C(NCc1ccccc1)c1onc(CSc2ccccc2)c1C(=O)NCc1ccccc1
  i, 1.06
(4) CCOc1ccc2nc(NCCNC(=O)C3CC3)c(C)cc2c1
  i, 0.97
(5) COC(=O)C1=C[C@@H](C(=O)OC)[C@@H]2C3=C(C(=O)[C@]2(C)NC(=O)c2ccccc2)[C@H](C)n2c(=O)n(C)c(=O)n2[C@@H]3C1
  i, 0.77
(6) COC(C[C@@H](O)C[C@H](O)[C@H](C)OCc1ccccc1)OC
  i, 0.91
(7) CCCCCCCCCNC(=O)[C@H](NC(=O)COc1ccccc1)[C@@H]1NC(C(=O)OC)C(C)(C)S1 (stereo partly drawn)
  i, 0.82
(8) Fc1cccc(CCN2CCNC[C@@H]2Cc2ccccc2)c1
  i, 0.86
(9) COC(=O)[C@H](NC(=O)c1cc(-c2ccccc2)nc2ccccc12)c1ccccc1
  i, 0.85
(10) CCn1c2ccccc2c2cc(NC(=O)C3CCN(S(=O)(=O)c4cccs4)CC3)ccc21
  i, 0.61
(11) O=C(NCc1ccc2c(c1)OCO2)c1ccc2c(c1)S(=O)(=O)c1ccccc1C2=O
  i, 0.99
(12) COCCCOc1ccnc(CS(=O)c2nc3ccccc3[nH]2)c1C (stereo not drawn)
  i, 0.7
(13) Cn1c(=O)c2[nH]c(CCCC(=O)O)nc2n(Cc2ccccc2)c1=S
  i, 1.08
(14) CC(=O)Nc1ccccc1Nc1nc(NCCO)nc(N2CCCC2)n1
  i, 0.61
(15) CC1Cn2c(nnc2-c2ccc(F)cc2)S1 (stereo not drawn)
  i, 0.97
(16) O=C(Nc1ccc(OC(F)(F)F)cc1)c1cnc2n(c1=O)CCS2
  i, 0.98
(17) CC(C)=CCc1c(O)cc2c(c1O)C(=O)CC(c1ccccc1)O2 (stereo not drawn)
  i, 1.14
(18) CNCCC(Oc1ccccc1OC)c1ccccc1 (stereo not drawn)
  i, 0.83
(19) CC1(C)C2CC[C@]3(C)C(CC=C4[C@@H]5C[C@@](C)(CO)[C@@H]6C[C@@]5(CC[C@]43C)C(=O)O6)[C@@]2(C)CC[C@@H]1O (stereo partly drawn)
  i, 1.09
(20) CCN(c1nc(N)c(C(=O)N=C(N)N)nc1Cl)C(C)C
  i, 0.72
(21) COC(C[C@H](O)C[C@H](O)[C@@H](C)OCc1ccccc1)OC
  i, 0.82
(22) CCOC(=O)C(C#N)(Cc1cc(OC)cc(OC)c1)Cc1cc(OC)cc(OC)c1
  i, 0.9
(23) COC(=O)C1=C(C)N(CC2CC2)C(=O)N[C@H]1c1ccccc1
  i, 0.89
(24) Cc1ccc(C2=CC(c3ccccc3)n3ncnc3N2)cc1 (stereo not drawn)
  i, 0.99
(25) COC(=O)C[C@H]1c2cc(C(F)(F)F)ccc2S(=O)(=O)N1Cc1ccccc1OC
  i, 0.87
(26) COc1ccc(-c2nnc3sc(-c4ccccc4OC)nn23)cc1
  i, 0.97
(27) COCCCn1c2nc3ccccc3nc2c2c(=O)n(Cc3ccccc3Cl)cnc21
  i, 1.09
(28) CCCCCCCCC(=O)O
  i, 0.82
(29) Cc1cc(CNC(=O)C2(C(F)(F)F)CC(CCCO)CCCO2)nn1C (stereo not drawn)
  i, 0.99
(30) Cc1nnc(SCc2nnc(-c3ccc(Cl)cc3)o2)n1-c1ccccc1
  i, 1.08
(31) CC(=O)O[C@H]1C[C@@H]2CC[C@@H]3[C@H](CC[C@@]4(C)[C@H]3C[C@H]([N+]3(C)CCCCC3)[C@@H]4OC(C)=O)[C@@]2(C)C[C@@H]1N1CCCCC1
  i, 0.95
(32) COC(C[C@H]1O[C@H]1C(=O)[C@@H](C)OCc1ccccc1)OC
  i, 0.82
(33) O=C1C2C3c4ccccc4C(c4ccccc43)C2C(=O)N1Cc1ccco1 (stereo not drawn)
  i, 1.05
(34) O=C(NCCc1ccccc1)[C@@H]1CC=C[C@@H]2CCN(C3CCCCC3)C(=O)[C@@H]21
  i, 1.14
(35) CC(C)C[C@@H](CO)NC(=O)CC[C@H](NC(=O)OC(C)(C)C)C(=O)N(Cc1ccccc1)Cc1ccccc1
  i, 0.96
(36) CCOC(=O)N1CCC(NC(=O)c2cnn3c(C(F)(F)F)cc(-c4cccc(OC)c4)nc23)CC1
  i, 0.97
(37) O=C1c2cccc(O)c2C(=O)c2c(O)cc(CO)cc21
  i, 0.81
(38) CCCCNC(=O)[C@@H]1CC=C[C@@H]2CCN(Cc3ccc(Cl)c(Cl)c3)C(=O)[C@@H]21
  i, 0.8
(39) CN(C)Cc1ccc(-c2nc3cccc4c3n2CCNC4=O)cc1
  i, 0.88
(40) COc1ccc(-c2c(-c3cccc(C)c3)oc3ccc(-c4ccc5c(c4)OCO5)cc23)cn1
  i, 0.91
(41) CC(C)C[C@H]1COCCS(=O)(=O)N1Cc1ccc(Cl)c(Cl)c1
  i, 0.86
(42) CC(O)[C@H]1CN=C(N)N1CC1CCCCC1 (stereo partly drawn)
  i, 0.8
(43) CC1(C)c2[nH]c3ccccc3c2C[C@@H]2C(=O)N(Cc3ccc(F)cc3)C(=O)N21
  i, 0.92
(44) COc1ccc(-c2csc(NC(C)c3nc4cc(C(=O)NCCCO)ccc4n3Cc3ccc(C)cc3)n2)cc1 (stereo not drawn)
  i, 0.86
(45) COC/C=C/C1=CC2=CC(=O)C(C)(OC(=O)c3cnc4ccccc4n3)C(=O)C2=CN1C1CCCC1 (stereo not drawn)
  i, 0.86
(46) CC(Nc1nc(-c2ccc(F)cc2)cs1)c1nc2cc(C(F)(F)F)ccc2n1CCOCCO (stereo not drawn)
  i, 1.06
(47) CC(C)(C)[C@H]1C=C(C(=O)O)O[C@@H](OCc2ccc(CO)cc2)C1
  i, 1.07
(48) CS(=O)(=O)c1ccc(-c2cc(Br)sc2-c2ccc(F)cc2)cc1
  i, 0.89
(49) C=C1CC2C(=O)N(Cc3ccccc3)C(C(=O)OCC)(C(=O)OCC)C1N2C(=O)OC(C)(C)C (stereo not drawn)
  i, 0.72
(50) CCC(C)(C)n1nnnc1C(c1cccc(C#N)c1)N1CCN(c2cc(C)ccc2C)CC1 (stereo not drawn)
  i, 0.74
(51) OCC[C@@H]1C[C@H](O)[C@@H](O)[C@@]2(CCCO2)O1
  i, 0.86
(52) Cc1nc(-c2ccc(Cl)cc2)sc1C1(C)CC(c2ccncc2)=NO1 (stereo not drawn)
  i, 0.96
(53) COC/C=C/C1=CC2=CC(=O)C(C)(OC(=O)c3cnc4ccccc4n3)C(=O)C2=CN1CCOC (stereo not drawn)
  i, 0.92
(54) OCCCn1c(C2CCCN2c2nc(-c3ccc(F)cc3)cs2)nc2cc(C(F)(F)F)ccc21 (stereo not drawn)
  i, 0.87
(55) O=C1CC2(CCCC2)Oc2ccccc21
  i, 0.86
(56) CCOC(=O)c1sc(NCCNc2nc(C)c(C(=O)OCC)s2)nc1C
  i, 0.87
(57) C#CCn1c(=O)c2c(ncn2C)n(C)c1=O
  i, 1.02
(58) C#CCOCCOCCOCCNc1nc(N2CCN(C(=O)[C@H](CCCCN)n3cc(C(N)CO)nn3)CC2)nc(N2CCN(C(=O)[C@H](CCCCN)n3cc(C(N)COC(=O)C(F)(F)F)nn3)CC2)n1 (stereo partly drawn)
  i, 0.88
(59) Cc1cc2sc3ccc(C#CC4(O)CCCCC4)cc3c(=O)c2cc1C
  i, 0.83
(60) CCC1CCCCN1Cc1nc2c(c(=O)n(C)c(=O)n2C)n1CCCc1ccccc1 (stereo not drawn)
  i, 0.84

Next section:
Fields: HSV augment, HSV augment primary fold
(61) C=CCC12C=C(OC)C(=O)OC(OC)(C1O)[C@H](c1ccc3c(c1)OCO3)[C@H]2C (stereo partly drawn)
  i, 0.86
(62) O=C(O)C1=C[C@@H](c2ccccc2)C[C@@H](OCCCCO)O1
  i, 0.83
(63) CC(C)CC(CO)N1CCN(C(=O)c2ccc(Cl)cc2)CCC1=O (stereo not drawn)
  i, 0.92
(64) Cc1onc(-c2ccccc2Cl)c1C(=O)Nc1cnn(Cc2ccccc2)c1
  i, 0.9
(65) NC(=O)CN1CCOCCN(CC(N)=O)CCOCC1
  i, 0.97
(66) N#Cc1c(N)n[nH]c1Cc1cccc2ccccc12
  i, 1.02
(67) OCC[C@@H]1C[C@@H](O)[C@H](O)[C@@]2(CCCCO2)O1
  i, 1.04
(68) NCCCC[C@H]1CN=C(N)N1CCCCC1CCCCC1
  i, 0.9
(69) COc1ccc(-c2oc3ccc(N4CCOCC4)cc3c2C#CC2(O)CCCCC2)cc1
  i, 0.88
(70) CC1(c2nnc(Cc3ccccc3)o2)CC(c2cccnc2)=NO1 (stereo not drawn)
  i, 0.98
(71) CCN1C(=O)N[C@@H](c2ccco2)C(C(=O)OC)=C1C
  i, 0.78
(72) C#CCNC(=O)C1=C[C@@H](c2ccc(C#C)cc2)C[C@@H](OCCCCO)O1
  i, 0.71
(73) COc1ccc2nc(-c3ccc(F)cc3)sc2c1
  i, 0.8
(74) COC(=O)C1=C(C)N(CCc2cc(OC)c(OC)c(OC)c2)C(=O)N[C@H]1c1ccccc1
  i, 0.81
(75) CCCn1c(=O)c2ccccc2n2c(SCC(=O)Nc3cc(C)on3)nnc12
  i, 0.92
(76) COc1ccc(N2CCCn3c2nc2c3c(=O)n(CCN3CCOCC3)c(=O)n2C)cc1
  i, 0.99
(77) COC(=O)C1=C(C(=O)OC)[C@@H]2Nc3ccccc3[C@@]23C[C@@H](C(=O)OC)N(C(=O)c2cccs2)C3=N1
  i, 0.83
(78) CCN1C(=O)N[C@@H](c2ccccc2)[C@H](C(C)=O)[C@H]1C
  i, 0.87
(79) CCOC(=O)C(=CNc1ccc(O)c(C(=O)OC)c1)C(=O)OCC
  i, 1.05
(80) CCN(CC)c1nc(N)c(C#N)c(CC#N)c1C#N
  i, 0.89
(81) C=CC1=C2C=C(C3CC3)N(CCCN(CC)CC)C=C2C(=O)C(C)(OC(=O)c2ccco2)C1=O (stereo not drawn)
  i, 0.93
(82) CC1(OC(=O)c2cccs2)C(=O)C=C2C=C(c3ccc(C#N)cc3)OC=C2C1=O (stereo not drawn)
  i, 0.96
(83) COc1ccc(Nc2nc(NCCO)nc(N3CCCC3)n2)cc1
  i, 0.65
(84) COc1ccc(-c2csc(NC(CO)c3nc4ccccc4n3CCOCCO)n2)cc1 (stereo not drawn)
  i, 0.97
(85) CC(C)CC(NC(=O)C(COC(C)(C)C)NC(=O)C(Cc1ccc(O)cc1)NC(=O)C(CO)NC(=O)C(Cc1c[nH]c2ccccc12)NC(=O)C(Cc1cnc[nH]1)NC(=O)C1CCC(=O)N1)C(=O)N[C@@H](CCCN=C(N)N)C(=O)N1CCCC1C(=O)NNC(N)=O (stereo partly drawn)
  i, 0.7
(86) COCOc1ccc(-c2cc(=O)c3c(OCOC)cc(OCOC)cc3o2)cc1
  i, 0.9
(87) CCOC(=O)C1=C(C)N(CCCC(=O)O)C(=O)NC1c1ccccc1Cl (stereo not drawn)
  i, 0.74
(88) CCOC(=O)c1cnn(-c2ncnc3c2oc2ccccc23)c1N
  i, 1.01
(89) COc1ccc(-c2csc(NC(C)c3nc4cc(Cl)c(Cl)cc4n3CCOCCO)n2)cc1 (stereo not drawn)
  i, 0.94
(90) COC(=O)C1=C(C(=O)OC)[C@@H]2N(C)c3ccc(OC)cc3[C@@]23C[C@@H](C(=O)OC)N(C(=O)CC(C)C)C3=N1
  i, 0.64
(91) OCCCn1c(CCNc2nc(-c3ccc(Cl)cc3)cs2)nc2cc(C(F)(F)F)ccc21
  i, 0.8
(92) O=C(O)C1Nc2ccc(OC(F)(F)F)cc2C2C=CCC12 (stereo not drawn)
  i, 0.8
(93) CN1CC[C@@]2([C@@]34CCN(C)C3Nc3ccccc34)c3ccccc3NC12 (stereo partly drawn)
  i, 1
(94) COc1ccc(-c2oc3ccc(-c4ccc5c(c4)OCO5)cc3c2-c2ccc(OC)nc2)cc1
  i, 0.92
(95) CCOC(=O)C[C@H]1c2ccc(C(F)(F)F)cc2S(=O)(=O)N1C(C)(C)C
  i, 1.01
(96) Cc1nn(-c2ccccc2)c2sc(C(=O)n3cccn3)cc12
  i, 1.02
(97) COc1ccc(-c2c(-c3ccsc3)oc3ccc(N4CCOCC4)cc23)cc1
  i, 0.99
(98) OCCOCCn1c(CCNc2nc(-c3ccc(Cl)cc3)cs2)nc2cc(Cl)c(Cl)cc21
  i, 0.94
(99) C[C@@H]1NC(=O)N[C@@H]1CCCCCC(=O)O
  i, 0.75
(100) O=c1[nH]snc1-c1c(Cl)cccc1Cl
  i, 0.9
(101) COc1cccc(C(N)=O)c1
  i, 0.96
(102) O=C(O)C[C@H](O)C[C@H](O)/C=C/c1c(C2CC2)nc2ccccc2c1-c1ccc(F)cc1
  i, 0.75
(103) O=C1CN2Cc3c(ccc(Cl)c3Cl)N=C2N1
  i, 1.09
(104) O=C(NCc1ccco1)c1cc(-c2ccccc2)nn1CC1CC(c2cccnc2)=NO1 (stereo not drawn)
  i, 0.72
(105) O=C(NC1CC1)C1=C[C@H](c2ccc(C(F)(F)F)cc2)C[C@H](OCCCCO)O1
  i, 0.85
(106) CCN1C(=O)N[C@H](c2ccc(Br)cc2)C(C(=O)OC)=C1C
  i, 0.91
(107) CCCCCCCCN1[C@@H](CC(C)=O)c2cc(C(F)(F)F)ccc2S1(=O)=O
  i, 1.02

An excerpt of these results, with tabs:
nr	SMILES	HSV augment	HSV augment primary fold
102	O=C(O)C[C@H](O)C[C@H](O)/C=C/c1c(C2CC2)nc2ccccc2c1-c1ccc(F)cc1	i	0.75
103	O=C1CN2Cc3c(ccc(Cl)c3Cl)N=C2N1	i	1.09
104	O=C(NCc1ccco1)c1cc(-c2ccccc2)nn1CC1CC(c2cccnc2)=NO1 (stereo not drawn)	i	0.72
105	O=C(NC1CC1)C1=C[C@H](c2ccc(C(F)(F)F)cc2)C[C@H](OCCCCO)O1	i	0.85
106	CCN1C(=O)N[C@H](c2ccc(Br)cc2)C(C(=O)OC)=C1C	i	0.91
